Compound activity (PubChem)
PINK1 expr mod: A Quantitative High throughput Screen to Identify Chemical Modulators of PINK1 Expression; PINK1 immunofluorescence, high-content cytometry, 24 h; 0.2% of 410,000 active; Potency, µM (series often up to 76.6 µM), inactives show top-dose activation (PINK1 increase), most hits filed as activators; AID 624263, 2012; active = well fitted activation curve with a large enough effect; inconclusive = small, poorly fitted or top-dose-only effect; inactive = flat fitted curve, though single readings scatter; cell line not stated here;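 note: potency is the fitted concentration of half-maximal effect; % of control where 0% means no effect; nearly all actives have a fitted effect of over 65% in size; a mitochondrial uncoupler was the plate control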
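PINK1 protein level read as immunofluorescence by microplate cytometer in a fixed, stained stable cell line after 24 h exposure to five compound concentrations, with CCCP as control.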
D2 potentiator: Beta-Arrestin HTS for Positive Allosteric Modulators of the Human D2 Dopamine Receptor: Potentiators; DiscoveRx D2 beta-arrestin cells, luminescence, 90 min; 100% = 57 uM dopamine signal; potentiation, % (test concentration not listed); 0.23% of 360,000 active; AID 624464, 2012; active = potentiation of 50% or more; inconclusive = 30% to 50%; inactive = 30% or less;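 note: compound concentration not given in the record; tested on top of an EC20 dose of dopamine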
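PathHunter D2 cells, attached overnight at 37 deg C, received compound in DMSO plus dopamine at EC20 (50 nM final) for 90 min at 37 deg C. Beta-arrestin recruitment was read as luminescence after 1 h with detection reagent at ambient temperature.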
Sfp inh: qHTS Assay for Inhibitors of Bacillus subtilis Sfp phosphopantetheinyl transferase (PPTase); 4'-phosphopantetheinyl transferase ffp (Bacillus subtilis), Q9F4F7; Biochemical Sfp PPTase activity, qHTS; Potency, µM, for inactives: max response, negative = inhibition, actives largely listed as inhibitors; 3.5% of 310,000 active; active = well fitted inhibition curve with a large enough effect; inconclusive = small, poorly fitted or top-dose-only effect, or another doubt; inactive = no such curve, though single readings can be large or run the other way;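 note: the enzyme is Sfp with the accession as filed and its product quenches rhodamine fluorescence; potency is the fitted concentration of half-maximal effect; 0% = enzyme reaction without inhibitor and -100% = no enzyme wells; top concentration of the series not given in the record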
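Reaction rates are the 30-min fluorescence difference (ex 525, em 598 nm) in wells containing 15 nM Sfp, 5 uM rhodamine-CoA and 12.5 uM BHQ-2-YbbR at pH 7.6 with 10 mM MgCl2.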
TRPV1 PAM: HTS Assay for Compounds that Act as Potentiators of the Vanilloid Receptor 1; Transient receptor potential cation channel subfamily V member 1 (Homo sapiens), Q8NER1; TRPV1-expressing cells, Fluo-8 calcium influx, capsaicin EC20 potentiation; host cell line not named in the record; control for the full effect not named in the record; potentiation, % at 8.33 µM; 0.02% of 320,000 active; AID 540277, 2011; active means potentiation above 80%; inconclusive means 30% to 80%; inactive means below 30%; note: 0% is about no effect
Target sequence (Q8NER1 whole entry, looked up): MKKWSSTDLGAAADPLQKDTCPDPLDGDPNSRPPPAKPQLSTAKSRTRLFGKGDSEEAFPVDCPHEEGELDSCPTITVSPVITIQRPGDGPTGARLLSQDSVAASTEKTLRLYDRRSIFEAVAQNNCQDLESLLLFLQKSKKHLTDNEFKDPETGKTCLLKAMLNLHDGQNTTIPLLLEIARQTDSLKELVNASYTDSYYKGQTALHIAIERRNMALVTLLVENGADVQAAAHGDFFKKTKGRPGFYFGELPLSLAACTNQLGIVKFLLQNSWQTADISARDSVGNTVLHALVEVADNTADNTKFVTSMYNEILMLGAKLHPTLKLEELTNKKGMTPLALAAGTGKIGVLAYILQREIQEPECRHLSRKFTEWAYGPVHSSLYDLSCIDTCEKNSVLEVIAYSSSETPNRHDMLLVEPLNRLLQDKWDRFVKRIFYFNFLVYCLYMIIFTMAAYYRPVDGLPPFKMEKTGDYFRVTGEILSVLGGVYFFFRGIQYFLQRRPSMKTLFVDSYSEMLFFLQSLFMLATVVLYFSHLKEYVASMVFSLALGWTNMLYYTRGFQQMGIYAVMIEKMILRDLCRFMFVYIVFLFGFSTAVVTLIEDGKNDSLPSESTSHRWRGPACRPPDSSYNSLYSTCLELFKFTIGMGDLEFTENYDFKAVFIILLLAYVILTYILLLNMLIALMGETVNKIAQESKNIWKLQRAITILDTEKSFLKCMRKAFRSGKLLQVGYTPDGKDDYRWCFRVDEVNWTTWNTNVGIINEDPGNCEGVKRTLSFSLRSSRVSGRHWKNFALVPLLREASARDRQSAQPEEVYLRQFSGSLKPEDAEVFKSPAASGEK
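Fluo-8 calcium influx in TRPV1-expressing cells, kinetic read (ex 480/em 520 nm). Compound added and read 3 min for agonist activity, followed by capsaicin at EC20 final and 2 min further read for enhancement.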
D2 ag: Beta-Arrestin HTS for Positive Allosteric Modulators of the Human D2 Dopamine Receptor: Agonists; AID 624465, 2012; DiscoveRx PathHunter D2 beta-arrestin, luminescence, 90 min; 100% = 57 uM dopamine signal; 0.084% of 360,000 active; activation, % (concentration not given with the values); in the data active = activation above about 40%; inconclusive = about 15% to 40%; inactive = below about 15%; note: compound concentration not given in the record; the text of the record calls up to 30% inactive
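DiscoveRx PathHunter D2 beta-arrestin cells (2,100/well) attached overnight, then compound-stimulated 90 min at 37 C in HBSS/10 mM HEPES/0.1% Tween-20 buffer; beta-galactosidase complementation read by luminescence after 1 h at ambient temperature. Dopamine 57 uM final (EC100) as control.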
CtBP-E1A inh: qHTS Assay for Inhibitors of the CtBP/E1A Interaction; CtBP / adenovirus E1A interaction (AlphaScreen); AlphaScreen GST-E1A/His-CtBP binding, 1536-well; hits give low values; control for the full effect not named in the record; activity change, % (concentration not given with the values); 0.49% of 340,000 active; in the data active means activity change below about -65%; inconclusive means about -30% to -65%; inactive means above about -30%; note: % is set by controls: 0 for no effect and ±100 for the full control effect
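Homogeneous bead-based format: GST-tagged E1A captured on glutathione donor beads, His-tagged CtBP on nickel acceptor beads; compounds precede bead addition by 2 h at 37 °C.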
Six1-Eya2 blk: qHTS Assay for Inhibitors of the Six1/Eya2 Interaction | AlphaScreen GST-Six1/His-Eya2 binding, biochemical; hits give low values; control for the full effect not named in the record | activity change, % (concentration not given with the values) | 0.56% of 360,000 active | AID 651725, 2012; in the data active = activity change below about -65%; inconclusive = about -30% to -65%; inactive = above about -30%; note: % is set by controls: 0 for no effect and ±100 for the full control effect
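Compounds are tested against tagged Six1 and Eya2 proteins bridged by glutathione donor and nickel acceptor beads; after a one-hour incubation at 37 °C without light, AlphaScreen emission is recorded.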
An asterisk follows results filed as active; ? = inconclusive; / = no result given; [ ] = remark or other dose.

SMILES	PINK1 expr mod	D2 potentiator	Sfp inh	TRPV1 PAM	D2 ag	CtBP-E1A inh	Six1-Eya2 blk
O=C(Nc1ccc(Cl)cc1)C1CC(=O)n2c(nc3ccccc32)N1 (centres undefined)	2.5%	-4.5	-29.6%	3.9	0.8	-4.0	-0.2
COc1cccc(/C=C2\SC(=O)N(CCC(=O)N3CCC(C(=O)O)CC3)C2=O)c1	-0.3%	1.0	2.1%	10.9	-1.2	7.3	6.0
CCOC(=O)c1c(C2COc3ccccc3O2)csc1NC(=O)c1ccco1 (centres undefined)	19.5%[38.3 µM]	-4.8	?	/	-4.1	10.6	0.8
COc1ccc(CCNS(=O)(=O)c2cccc3cccnc23)cc1OC	2.1%	-9.1	13.5%	10.0	0.8	-9.8	-9.8
CCOc1ccc(-n2cc(-c3ccccc3)c3c(SC(C)C(=O)OC)ncnc32)cc1 (centres undefined)	-0.2%	-25.1	11.7%	-0.2	1.3	-7.6	3.0
Cc1ccc(C)c(C(=O)Nc2ccncc2)c1	-0.1%	-4.3	15.1%	-23.8	5.0	-0.1	-17.7
COc1ccc(-c2ccc(C(=O)NCC3CC3)c3occc23)c(C)c1	13.0%	-10.3	/	/	5.6	-24.9	12.0
O=C(CCS(=O)(=O)Cc1ccccc1)N1CCN(c2ccccc2)CC1	4.4%[38.3 µM]	1.0	18.9%	12.3	0.3	-1.0	1.5
CC(Sc1ccsc1[N+](=O)[O-])C(=O)N1CCN(c2ccccn2)CC1 (centres undefined)	0.8%	-2.1	16.7%	0.5	1.4	2.7	-1.6
O=C1CC(c2ccccc2)Cc2nc(NCc3ccco3)ncc21 (centres undefined)	6.9%	-1.5	24.1%	-11.4	-1.3	2.7	-0.6
CCCCCCCCCCCCC(=O)CCCCC(=O)O	0.4%	-3.3	5.8%	16.8	-2.3	11.6	4.3
CN(C(=O)Cn1cnc2ccccc2c1=O)C1CCS(=O)(=O)C1 (centres undefined)	1.6%	7.2	/	-2.9	1.9	0.0	7.9
CC1CN(C(=S)Nc2ccc(Br)cc2)CC(C)O1 (centres undefined)	4.5%	-3.5	10.6%	13.1	-0.7	7.6	-1.3
CCN(CC)S(=O)(=O)c1cc(NC(=O)CSc2nnc(N)s2)ccc1C	2.1%	-3.4	/	-2.9	-4.8	/	-0.3
O=C(NCCCN1CCOCC1)[C@@H]1CSC2c3ccccc3C(=O)N21 (some centres undefined)	-0.2%	3.6	-1.2%	5.4	-1.8	-0.5	8.8
O=C(NCC(c1cccnc1)N1CCOCC1)c1ccc2c(c1)OCO2 (centres undefined)	0.8%	-5.0	-4.8%	-5.6	-2.5	3.1	9.1
CCOC(=O)C1CCCN(C(=O)c2oc3ccccc3c2C)CC1 (centres undefined)	-0.3%	-8.4	/	/	-3.0	12.0	4.8
C/C(=N\NC(=O)Cc1ccc(Cl)cc1)c1ccc(F)cc1	14.3%	-34.3	18.5%	-20.0	-2.0	/	3.9
CCN(CC)C(=O)Cn1cc(S(=O)(=O)CC(=O)N2CCOCC2)c2ccccc21	4.3%	6.5	/	/	8.9	8.5	6.7
CC(=C/c1ccccc1)/C=N/NC(=O)c1ccccn1	-0.8%	-11.4	-24.1%	-17.8	-0.5	-0.2	-1.6
O=C(COc1ccc(Br)cc1Cl)Nn1cnnc1	0.8%	-4.6	6.3%	7.6	-2.8	/	12.2
COc1ccc(NC(=O)CCNS(=O)(=O)c2cc(Br)cnc2N)c(OC)c1	-1.1%	-5.7	7.7%	3.4	0.1	4.3	-1.2
CCCCN(CC)Cc1ccc(CNC(=O)Nc2ccc(Cl)cc2)o1	3.2%	-20.0	-1.2%	-12.6	-2.7	-19.0	-19.6
O=C(CCCCCN1C(=O)c2ccccc2C1=O)Nc1ccccc1	-3.2%[38.3 µM]	4.5	8.1%	7.4	-0.3	2.8	2.3
Cn1cc(CN2CCC(O)CC2)c(-c2ccc(Oc3ccccc3)cc2)n1	-0.3%	-12.4	4.4%	1.0	-6.9	/	0.2
N#CCOC(=O)C1c2ccccc2Oc2ccccc21	7.2%	-8.6	5.1%	4.8	-2.2	9.5	-5.5
O=C1CC(c2ccco2)CC2=C1C1c3ccccc3C(=O)N1c1ccccc1N2 (centres undefined)	?	3.0	20µM*	-3.3	-1.1	0.0	-23.3
Cc1cc(C)n(C(=O)/C=C/c2cccs2)n1	0.4%	0.3	-3.9%	-4.5	2.5	-1.3	5.3
COc1cccc(CN(C(=O)c2ccccc2)C2CCS(=O)(=O)C2)c1 (centres undefined)	-0.9%	-3.1	10.3%	-22.8	-3.3	4.1	1.1
CC(NC(=O)COC(=O)C1CCN(c2ccc(C(F)(F)F)cn2)CC1)c1ccccc1 (centres undefined)	1.9%	-19.9	/	/	-0.1	-2.4	5.4
CCN(CC)C(=O)[C@H]1C[C@H](CC(=O)NC(C)(C)C)C(=O)N2CCc3c([nH]c4ccc(Cl)cc34)[C@]12C	1.3%	-8.6	/	/	-1.1	-6.4	-1.9
CCNC(=O)Cn1c(=O)c(=O)n(Cc2ccccc2)c2ccc(Cl)cc21	13.1%	-12.0	-16.5%	-10.2	0.0	2.0	-2.7
C=CCn1c(Oc2ccc(C(=O)OC)cc2)nc2c1c(=O)n(C)c(=O)n2C	-1.1%	-6.1	14.1%	-10.7	-1.4	-3.0	6.2
COc1cc2c(c(OC)c1CC=C(C)C)C[C@H](c1ccc(O)cc1O)CO2	1.4%	-16.7	/	/	13.6	-5.0	-8.8
CC(C)Oc1ccc(C(=O)Nc2cccc3cccnc23)cc1	5.1%	-7.3	-24.1%	-24.6	0.2	/	0.0
CN1CCN(C(=O)c2cc(Br)cn2C)CC1	0.8%	-9.9	18.4%	1.8	1.1	2.0	3.1
O=C(C1=C[C@@H](c2ccc3c(c2)OCO3)C[C@@H](OCCCCO)O1)N1CCN(Cc2ccc3c(c2)OCO3)CC1	-1.0%	-7.5	2.7%	-0.3	0.2	-24.1	-10.1
COc1cccc(CN2CCN(C(=O)c3cccc(OC)c3)CC2)c1	2.9%	-17.9	79.4µM*	27.6	-5.3	4.1	-2.5
CCNC(=O)C1(C)CCN(Cc2ccc(OC(F)(F)F)cc2)C1 (centres undefined)	0.7%	-7.8	/	/	-1.4	6.5	7.8
CC1CC(C)CN(S(=O)(=O)N2CCCC(C(=O)NCCCN3CCOCC3)C2)C1 (centres undefined)	2.0%	-11.1	16.8%	-4.6	-1.3	-2.4	2.4
COc1cccc(NC(=O)NNC(=O)c2ccc3c(c2)NC(=O)C(C)(C)O3)c1	-1.1%	-0.2	10.2%	6.6	1.6	18.3	0.0
Cc1ccc(/C=N/NC(=O)Nc2ccccc2)o1	0.7%	-10.4	7.2%	-2.0	0.1	4.5	1.0
Cc1ccc(/C=N/n2c(C)n[nH]c2=S)o1	-3.4%	13.9	-11.7%	4.6	3.9	2.1	0.8
NS(=O)(=O)c1ccc(CCNC(=O)CNC(=O)c2ccccc2F)cc1	0.9%	-5.7	11.6%	2.5	-1.6	-11.3	1.1
NC(=S)Nc1nccc(-c2cccs2)n1	-0.2%	-4.7	-5.4%	5.0	2.4	-7.5	-6.6
Cc1c(NC(=O)CN2C(=O)NC3(CCCCC3)C2=O)c(=O)n(-c2ccccc2)n1C	-1.5%	0.7	16.3%	1.6	-7.6	-0.4	-2.2
O=[N+]([O-])c1ccc2c(c1)C(O)n1ncnc1S2 (centres undefined)	2.5%	11.8	11.6%	-0.2	-4.4	3.0	-2.4
CCNC(=S)NNC(=O)c1ccc(OC)cc1	-2.4%	-3.7	10.6%	-4.7	-0.5	-0.2	8.8
CCOc1ccc(OCC)c(NC(=O)C2C3C=CC(O3)C2C(=O)O)c1 (centres undefined)	1.8%	-7.2	/	/	4.3	-1.0	-11.2
Cc1csc2ncc(C(=O)N3c4ccccc4CC3C)c(=O)n12 (centres undefined)	0.6%	11.7	4.7%	20.2	-2.9	-8.9	7.2
Nc1ccc(C(=O)N2N=C(c3ccc(F)cc3)CC2(O)C(F)(F)F)cc1 (centres undefined)	-0.9%	-5.8	2.2%	-12.1	4.7	0.5	0.0
COC(=O)C1=C(C)N(Cc2ccccc2)C(=NCc2cccc(C(F)(F)F)c2)N[C@H]1c1cccc(C(F)(F)F)c1	-2.2%	-9.8	?	-19.5	-0.2	-18.9	-4.4
CC(C)CC1NC(=S)N(C2CCCCC2)C1=O (centres undefined)	8.2%	-14.4	9.6%	-9.1	-4.1	2.9	1.9
COc1ccc(Cc2nc(N)nc(N)n2)cc1	1.2%	-6.1	17.6%	12.5	0.1	5.0	8.2
CC(/C=C/c1ccccc1F)=N\NC(=O)c1cccc(F)c1	7.4%	-10.6	19.0%	-8.7	-1.5	0.0	-0.5
COCCCNC(=S)N/N=C/c1ccc(OC)c(Br)c1	1.4%	-8.1	0.0%	-6.5	-3.7	-16.7	-14.4
O=c1oc(/C=C/c2ccco2)nc2sc3c(c12)CCC3	?	-0.4	-2.5%	-18.7	-1.7	6.3	2.4
CCOC(=O)CC[C@H](NC(=O)Cn1cc(C)c(=O)[nH]c1=O)C(=O)OCC	-1.0%	-2.5	/	/	-1.8	2.3	5.5
CC(C)CNS(=O)(=O)c1ccc(CCC(=O)NC2CCCC2)cc1	1.4%	-2.3	21.1%	-1.5	-6.1	15.9	-2.6
Cc1ccc(OCc2ccc(C(=O)Nc3nccs3)o2)cc1C	2.2%	-11.8	1.7%	0.7	-0.5	-18.3	-19.5
(further entries)
SMILES	PINK1 expr mod	D2 potentiator	Sfp inh	TRPV1 PAM	D2 ag	CtBP-E1A inh	Six1-Eya2 blk
O=C1N(Cc2cccc(Cl)c2)C[C@@H]2C[C@@H](c3ccccn3)N3CCC[C@@]123	2.2%	-8.8	50.1µM*	0.8	-3.2	-0.5	-3.2
O=C(NNC(=O)c1cc(C(F)(F)F)cc(C(F)(F)F)c1)c1ccc(Cl)cc1	8.5%	-4.1	19.8%	/	-0.2	5.5	2.8
C=CCn1c(SCC(=O)Nc2nc3ccccc3s2)nc(O)c(CC)c1=O	2.7%	4.9	-3.1%	8.4	-3.8	-3.1	-10.7
CCN1CCN(C(c2cccs2)C(C)NC(=O)c2ccccc2)CC1 (centres undefined)	-0.3%	-0.9	12.2%	14.6	-3.5	4.4	2.4
